Screening results as filed in PubChem.
AmpC nodet inh – inhibitors of E. coli AmpC beta-lactamase without detergent | P00811 | AmpC nitrocefin hydrolysis, absorbance 480 nm, no detergent; potencies from a single point are estimates | Potency, µM (top dose mostly 28.7 µM), for inactives: at the highest dose activity change, negative = inhibition | 1.8% of 71,000 active; active = falling curve, for most hits resting on a single point; inconclusive = weak or doubtful change; inactive = flat or rising curve; further: % of control where 0% means no effect; about half of the hits show no inhibition at the top dose; a quarter of the inactives give rising signals
Target sequence (P00811 whole entry, looked up): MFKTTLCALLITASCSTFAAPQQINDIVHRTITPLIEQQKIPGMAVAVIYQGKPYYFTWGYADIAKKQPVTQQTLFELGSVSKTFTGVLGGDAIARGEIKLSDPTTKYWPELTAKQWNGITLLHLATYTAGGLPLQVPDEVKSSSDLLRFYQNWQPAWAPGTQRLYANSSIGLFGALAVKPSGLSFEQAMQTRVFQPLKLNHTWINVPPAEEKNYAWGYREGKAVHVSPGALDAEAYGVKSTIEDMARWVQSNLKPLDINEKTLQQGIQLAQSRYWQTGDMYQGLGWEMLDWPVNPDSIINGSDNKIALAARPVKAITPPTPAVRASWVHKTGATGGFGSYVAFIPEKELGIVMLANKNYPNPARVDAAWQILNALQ
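AmpC, 20 mM phosphate pH 7.0; 15 min cpd preinc, RT; start with nitrocefin (800 uM stock); A480 kinetic read, 20 s intervals, 4 min. No-enzyme wells = negative control.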
* = called active by the depositor; & = joins results of further samples; [ ] = remark or other dose. Potency means the concentration at half of the fitted maximal effect. Some of the compounds tested; rates above refer to the full screens.

For O=C(CCN1CCc2ccccc2C1)Nc1ccccc1F the results were AmpC nodet inh 5%.
Screening CCSc1nc2ccccc2n1CCC(=O)O returned AmpC nodet inh -17%.
O=C(O)c1cc2ccc3ccccc3c2[nH]1 was read as AmpC nodet inh -22%.
Fc1cccc2sc(Nc3nnc(-c4ccccc4)o3)nc12 was read as AmpC nodet inh 13µM*[single pt active].
For CC(=O)Nc1nc(CC(C)C)cc(-c2ccco2)c1C#N the results were AmpC nodet inh 4%.
`COc1ccccc1N1CCNCC1` gave AmpC nodet inh -3%.
`COC(=O)Cn1cc(C(=O)OC)c2ccccc21` gave AmpC nodet inh 12%.
O=C(CC1Oc2ccccc2NC1=O)NCc1ccc(Cl)cc1 (stereo unspecified) was read as AmpC nodet inh 11%.
`COc1ccc(-c2nnn(CC(=O)N(CC(=O)NCCC(C)C)Cc3cccs3)n2)cc1OC` gave AmpC nodet inh 117%.
For Cc1c(NC(=O)C(C)OC(=O)CC2Sc3ccccc3NC2=O)c(=O)n(-c2ccccc2)n1C (stereo unspecified) the results were AmpC nodet inh 18%.

Reprinted from the listing (3 entries):
For O=C(CCN1CCc2ccccc2C1)Nc1ccccc1F the results were AmpC nodet inh 5%.
Screening CCSc1nc2ccccc2n1CCC(=O)O returned AmpC nodet inh -17%.
O=C(O)c1cc2ccc3ccccc3c2[nH]1 was read as AmpC nodet inh -22%.

(continued)
O=C1OCCC1Sc1nc2ccccc2[nH]1 (stereo unspecified) was read as AmpC nodet inh -14%.
Screening COC(=O)C1C2C=CC3(CN(CC4CCCO4)C(=O)C13)O2 (stereo unspecified) returned AmpC nodet inh 54%.
For Cn1c2ccccc2c2c(C(=O)NCc3ccco3)cn(C3CCCCC3)c(=O)c21 the results were AmpC nodet inh 52%.
`COc1cccc(-c2cc(C(=O)Nn3cnnc3)c3ccccc3n2)c1` gave AmpC nodet inh -9%.
Screening CNc1ccc(O)cc1 returned AmpC nodet inh -1%.
`O=C(O)C1CCN(S(=O)(=O)c2cccnc2)CC1` gave AmpC nodet inh -6%.
O=c1c(O)c(-c2cccc(O)c2)oc2ccccc12 was read as AmpC nodet inh -13%.
O=C(Cn1cnc2sc(-c3ccccc3)cc2c1=O)NCc1ccco1 was read as AmpC nodet inh 5µM*.
`CCOc1cc(C)c(Cl)cc1S(=O)(=O)n1nnc2ccccc21` gave AmpC nodet inh 3%.
Screening COc1cccc(N2C(=O)NC(=O)C3(Cc4cc(C)ccc4N(C)C3)C2=O)c1 (stereo unspecified) returned AmpC nodet inh -4%.
`CC(C)(C)NC(=O)c1sccc1C(=O)O` gave AmpC nodet inh -6%.
`O=C(c1cc(C(F)(F)F)cc(C(F)(F)F)c1)N1CCC[C@@]2(CCN(Cc3ccncc3)C2)C1` gave AmpC nodet inh 79%.
For COc1ccc(NC(=O)CNc2cccc(C#N)c2)cc1Cl the results were AmpC nodet inh inconclusive.
Nc1nc2c3ccccc3nc(C3CC3)n2n1 was read as AmpC nodet inh 8%.
Screening O=c1nc2n(c3c4c(sc13)CCC4)CCC2 returned AmpC nodet inh -4%.
COc1ccccc1-n1nnnc1S(=O)(=O)Cc1ccc(Cl)cc1 was read as AmpC nodet inh -23%.
For COC(=O)[C@@H](NC(=O)Nc1ccccc1F)C(C)C the results were AmpC nodet inh -8%.
Cc1ccc(C)c(S(=O)(=O)NC(CC(C)C)C(=O)O)c1 (stereo unspecified) was read as AmpC nodet inh -16%.
Screening Cn1ccnc1SCC(=O)N(C1CCCCC1)C1CCCCC1 returned AmpC nodet inh 62%.
Screening O=C(NCc1ccccc1)c1ccc(CN2CCOCC2)cc1 returned AmpC nodet inh -8%.
For CCc1ccc(NC(=O)c2cc(C(C)C)on2)cc1 the results were AmpC nodet inh -13%.
Screening C=CC(C)=O returned AmpC nodet inh -10%.
Screening O=CCCCC=O returned AmpC nodet inh -12%.
COc1ccc2c(Cl)cc(NC(=S)Nc3ccccc3)nc2c1 was read as AmpC nodet inh -14%[5.75 µM].
`COC(=O)c1ccc2c(=O)n(Cc3ccco3)c(SCC(=O)Nc3ccccc3Cl)nc2c1` gave AmpC nodet inh -15%.
For Fc1ccc(C(c2nnnn2Cc2cccs2)N2CCN(C3CCCCC3)CC2)cc1 (stereo unspecified) the results were AmpC nodet inh 30%.
For CC1CCN(CC[S-])CC1.O.O.[Cl][Pt] the results were AmpC nodet inh 8%[5.75 µM].
Cc1ccsc1C(C(=O)NC1CCCCC1)N(C(=O)Cc1cccs1)C1CC1 (stereo unspecified) was read as AmpC nodet inh 32%.
CC(C)C1N=C2c3ccccc3N=C(SCc3cc(=O)n4ccccc4n3)N2C1=O (stereo unspecified) was read as AmpC nodet inh 20%.
For Cc1cc(C(F)(F)F)nn1-c1nc(-c2ccco2)cc(C(F)(F)F)n1 the results were AmpC nodet inh 20%.
CCOc1cc(C2C(C(=O)N3CCCCC3)=C(C)NC3=C2C(=O)CCC3)cc(Br)c1O (stereo unspecified) was read as AmpC nodet inh 26%.
CCOc1ccccc1NC(=O)CN(C)S(=O)(=O)c1cccc2nsnc12 was read as AmpC nodet inh 20%.
Screening Cc1cn(-c2ccc(Br)cc2)[nH]c1=O returned AmpC nodet inh -7%.
For Cc1oc(-c2ccc(Cl)cc2)nc1CN1CCC(C(=O)NCCCN2CCOCC2)CC1 the results were AmpC nodet inh 45%.
`CC(=O)C1C(c2ccccc2OC(F)F)NC(=O)NC1(O)C(F)(F)F` (stereo unspecified) gave AmpC nodet inh -11%.
For COC(=O)Cc1cc(=O)n(-c2nc3ccccc3[nH]2)[nH]1 the results were AmpC nodet inh 15%.
`COC(=O)COc1ccc(-c2nn(C)c(=O)c3ccccc23)cc1` gave AmpC nodet inh 14%.
Screening COc1ccccc1N1CCN(CC(=O)c2c(C)n(C)c3ccccc23)CC1 returned AmpC nodet inh 90%.
`O=C(O)C(=O)Cc1ccc2c(c1)OCO2` gave AmpC nodet inh -5%[5.75 µM].
`COc1ccc(OC)c(NC(=O)CN(c2ccc(OC)c(Cl)c2)S(C)(=O)=O)c1` gave AmpC nodet inh 70%.

5 entries picked at random from the list so far, as already listed:
`COc1ccc(OC)c(NC(=O)CN(c2ccc(OC)c(Cl)c2)S(C)(=O)=O)c1` gave AmpC nodet inh 70%.
CCOc1cc(C2C(C(=O)N3CCCCC3)=C(C)NC3=C2C(=O)CCC3)cc(Br)c1O (stereo unspecified) was read as AmpC nodet inh 26%.
Screening Cc1cn(-c2ccc(Br)cc2)[nH]c1=O returned AmpC nodet inh -7%.
For COC(=O)Cc1cc(=O)n(-c2nc3ccccc3[nH]2)[nH]1 the results were AmpC nodet inh 15%.
`O=C(O)C(=O)Cc1ccc2c(c1)OCO2` gave AmpC nodet inh -5%[5.75 µM].

More entries follow.
COc1ccc(N(CC(=O)Nc2ccc3c(c2)OCCO3)S(=O)(=O)c2c(C)noc2C)cc1 was read as AmpC nodet inh 6%.
CCCc1cc(=O)n2[nH]c(Cc3ccccc3)nc2n1 was read as AmpC nodet inh 0%.
Screening CCOc1ccccc1NC(=O)c1ccc(F)c(S(=O)(=O)N2CCC3(CC2)OCCO3)c1 returned AmpC nodet inh 114%.
`CSCCC(NS(=O)(=O)c1ccc2c(c1)OCCO2)C(=O)NCCc1ccccn1` (stereo unspecified) gave AmpC nodet inh 16%.
For CCN(C(=O)CN1CCN(c2ccc(O)cc2)CC1)c1c(N)n(Cc2ccccc2)c(=O)[nH]c1=O the results were AmpC nodet inh 44%.
`O=C(/C=N/O)NCCCn1ccnc1` gave AmpC nodet inh 0%.
`CC(C)OCCCNC(=O)c1cc2c(s1)CS(=O)(=O)C2` gave AmpC nodet inh 6%.
For COc1ccc(-n2ncc3c(NCCCN4CCOCC4)ncnc32)cc1 the results were AmpC nodet inh 9%.
For O=C(O)c1ccc([N+]2=Cn3c(nc4ccccc43)C2)cc1 the results were AmpC nodet inh -8%[5.75 µM].
`NC(=O)c1ccsc1NC(=O)COC(=O)C1CCCN1C(=O)c1cccs1` (stereo unspecified) gave AmpC nodet inh -8%.
`COc1cc(OC)cc(-c2nnc(SCC(=O)N3CCCC3)o2)c1` gave AmpC nodet inh 29%.
c1ccc(Cn2c(CNc3nc4ccccc4n3CCN3CCOCC3)nc3ccccc32)cc1 was read as AmpC nodet inh -3%.
`CCOC(=O)C1C(=O)N(C)C2(C)CC1c1cc(OC)ccc1O2` (stereo unspecified) gave AmpC nodet inh 39%.
`CC1(C)C2CCC1(C)C(NC1=NCCC1)C2` (stereo unspecified) gave AmpC nodet inh -10%.
For CC(Oc1ccc(Cl)cc1Cl)C(=O)NC1CCSC1=O (stereo unspecified) the results were AmpC nodet inh 1%.
`O=C(Nc1ccc(N2CCOCC2)cc1)C1CCCN(S(=O)(=O)c2cccc(C(F)(F)F)c2)C1` (stereo unspecified) gave AmpC nodet inh 54%.
Screening O=C(NCC1CCCO1)c1ccc(N2CCCCC2)nc1 (stereo unspecified) returned AmpC nodet inh -3%.
Screening Cc1cccc(-c2noc(CN(C)S(=O)(=O)c3cc(Cl)ccc3Cl)n2)c1 returned AmpC nodet inh -19%.
CCn1c(COc2cccc(OC)c2)nnc1SCC(=O)Nc1ccccc1C(=O)OC was read as AmpC nodet inh 112%.
CCCn1c(=N)c(C(=O)NCC2CCCO2)cc2c(=O)n3cccc(C)c3nc21 (stereo unspecified) was read as AmpC nodet inh 7%.

Entries listed so far that contain a cyano group (2):
For CC(=O)Nc1nc(CC(C)C)cc(-c2ccco2)c1C#N the results were AmpC nodet inh 4%.
For COc1ccc(NC(=O)CNc2cccc(C#N)c2)cc1Cl the results were AmpC nodet inh inconclusive.

(listing goes on)
For Cc1cccc(-n2ncc3c(NCc4ccccn4)ncnc32)c1 the results were AmpC nodet inh 33%.
`Cc1nc(CN2CCN(C(=O)c3ccc(Br)cc3)CC2)cs1` gave AmpC nodet inh 25%.
`O=S(=O)(NCc1cn2ccsc2n1)c1ccc(Oc2ccccc2)cc1` gave AmpC nodet inh 0%.
For Cc1ccc2c(c1)-c1c(cnn1CC(=O)O)CO2 the results were AmpC nodet inh -13%.
For COc1ccc(CCN(C)CCCOc2ccc(S(=O)(=O)c3[nH]c4ccccc4c3C(C)C)cc2)cc1OC the results were AmpC nodet inh 104%.
`CC(=O)N1C2(C=CC1(C)C(=O)NCc1ccccn1)CCCCC2` (stereo unspecified) gave AmpC nodet inh 40%.
`OCCSc1nc(-c2cccnc2)nc2ccccc12` gave AmpC nodet inh 48%.
`Cc1c(C(=O)Nc2c(C)n(C)n(-c3ccccc3)c2=O)oc2ccccc12` gave AmpC nodet inh -8%.
For COCCNC(=O)CS(=O)Cc1nc(-c2ccc(OC)cc2)oc1C (stereo unspecified) the results were AmpC nodet inh 3.2µM*.
O=C(COc1ccc(Cl)cc1)NC1CCSC1=O (stereo unspecified) was read as AmpC nodet inh 1%.
Screening CC(C)C[C@H](N)c1nnc(S(=O)(=O)Cc2ccc(F)cc2)o1 returned AmpC nodet inh 2.5µM*.
Screening Cc1ccc2c(c1)c1c(n2CC(O)CN2C(=O)CNC2=O)C(=O)CCC1 (stereo unspecified) returned AmpC nodet inh 99%.
Screening O=C1CC(C(=O)Nc2ccccc2)N=C(N2CCOCC2)N1 (stereo unspecified) returned AmpC nodet inh 2%.
`CCOCCCNC(=O)c1c[nH]c2cc(C)ccc2c1=O` gave AmpC nodet inh 18%.
For Cc1cc(N2CCN(Cc3ccc4c(c3)OCO4)CC2)n2ncnc2n1 the results were AmpC nodet inh 15%.
For COC(=O)Cn1ncc2c(C)n(Cc3ccccc3)c(C)c2c1=O the results were AmpC nodet inh 64%.
Cc1cc(C)n(C(=O)c2cc3ccccc3c(=O)o2)n1 was read as AmpC nodet inh 3%.
For COC(=O)c1cccc(-n2nnnc2SCC(=O)Nc2nc3c(s2)CCCC3)c1 the results were AmpC nodet inh -8%.
`Cn1c(NCc2ccco2)nc2ccccc21` gave AmpC nodet inh 17%.
Screening CC(NC(=O)Nc1ccccc1)C(c1cccs1)N1CCN(C)CC1 (stereo unspecified) returned AmpC nodet inh 12%.

Compounds shown so far that contain a CF3 group (4):
`O=C(c1cc(C(F)(F)F)cc(C(F)(F)F)c1)N1CCC[C@@]2(CCN(Cc3ccncc3)C2)C1` gave AmpC nodet inh 79%.
For Cc1cc(C(F)(F)F)nn1-c1nc(-c2ccco2)cc(C(F)(F)F)n1 the results were AmpC nodet inh 20%.
`CC(=O)C1C(c2ccccc2OC(F)F)NC(=O)NC1(O)C(F)(F)F` (stereo unspecified) gave AmpC nodet inh -11%.
`O=C(Nc1ccc(N2CCOCC2)cc1)C1CCCN(S(=O)(=O)c2cccc(C(F)(F)F)c2)C1` (stereo unspecified) gave AmpC nodet inh 54%.

Continuation:
CC(C)C(c1nnnn1C1CCCC1)N1CCCc2ccccc21 (stereo unspecified) was read as AmpC nodet inh 45%.
`COc1ccc(Nc2ncc3c(n2)CC(c2ccc(OC)cc2)CC3=O)cc1` (stereo unspecified) gave AmpC nodet inh 30%.
For CC(C)(C)c1cc(Br)ccc1OCC(=O)Nc1ncn[nH]1 the results were AmpC nodet inh -3%.
Screening N[C@H](CP(=O)(O)O)C(=O)O returned AmpC nodet inh -3%&2%.
For CCOC(=O)N1CCN(c2c(Nc3ccc4c(c3)OCCO4)c(=O)c2=O)CC1 the results were AmpC nodet inh 4µM*[single pt active].
CCC1Oc2ccc(C)cc2N(CC(=O)N(Cc2ccc3c(c2)OCO3)CC2CCCO2)C1=O (stereo unspecified) was read as AmpC nodet inh 97%.
Screening O=C(c1ccc(CS(=O)(=O)c2ccc(Br)cc2)o1)N1CCN(c2ncccn2)CC1 returned AmpC nodet inh 23%.
`CCOC(=O)c1cc(-c2ccc(/C=N\n3cnnc3)o2)ccc1Cl` gave AmpC nodet inh 16%.
CC(C)NC(=O)Cn1c(SCC(=O)N2CCc3ccccc3C2)nc2ccccc21 was read as AmpC nodet inh 44%.
